Assay outcomes: PubChem BioAssay, National Center for Advancing Translational Sciences (NCATS)
NS1 inh: influenza NS1 inhibition. S. cerevisiae slowed by influenza A NS1, growth recovery by OD600. Potency, µM (titrated, usually from 46.1 µM), for the others: at the top dose activity, positive = more growth. 0.4% of 270,000 active; active means well fitted rising curve with a large enough effect; inconclusive means small, poorly fitted or top-dose-only effect; inactive means no such curve, though single readings can be large or run the other way; also: nearly all actives have a fitted effect of over 50% in size
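Recovery from NS1-induced slow growth read by OD600 in budding yeast switched to galactose assay medium (pH 6.0, -URA) at 1:100 dilution. Compound 23 nl per well; the matching strain lacking NS1 serves as control.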
Cruzain inh noDet: cruzain (T. cruzi) inhibition without detergent; P25779; purified cruzain, Z-FR-AMC fluorescence, no detergent; Potency, µM, for inactives: max response, negative = inhibition, usual class: inhibitors; 2.3% of 200,000 active; AID 1476;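 also: plate controls were enzyme without inhibitor for no effect and buffer without enzyme for full effect; nearly all actives have a fitted effect of over 40% in size; top concentration of the series not given in the record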
Target sequence (P25779 123-467 limits assumed): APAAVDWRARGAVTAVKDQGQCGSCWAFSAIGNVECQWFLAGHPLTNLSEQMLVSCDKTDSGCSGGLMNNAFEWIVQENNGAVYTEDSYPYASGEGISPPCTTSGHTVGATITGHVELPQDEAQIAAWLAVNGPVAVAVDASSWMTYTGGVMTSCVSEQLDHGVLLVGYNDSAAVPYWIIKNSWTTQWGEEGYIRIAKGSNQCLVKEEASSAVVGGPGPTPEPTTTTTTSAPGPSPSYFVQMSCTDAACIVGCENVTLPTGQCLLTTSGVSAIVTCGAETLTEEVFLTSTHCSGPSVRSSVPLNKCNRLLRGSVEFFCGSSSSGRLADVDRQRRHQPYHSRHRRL
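Detergent-free condition (0.00005% Triton X-100) in acetate buffer pH 5.5 with DTT. 1.5 nM enzyme and compound were pre-mixed 15 min, then 2 uM Z-FR-AMC substrate added; reaction progress from fluorescence change between first and third reads (60 s).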
RE007 growth inh: less growth of the S. pombe RE007 Vpr strain | 0.21% of 360,000 active | Potency, µM (highest dose often 92.2 µM), for the others: at the top dose activity change, negative = less growth | S. pombe RE007 Vpr strain, BacTiter-Glo ATP luminescence, 24 h; control for the full effect not named in the record; active = well fitted falling curve with a large enough effect; inconclusive = small, poorly fitted or top-dose-only effect; inactive = no such curve, though single readings can be large or run the other way;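 also: % is scaled to controls: 0 for no effect and ±100 for the full control effect; nearly all actives have a fitted effect of over 50% in size; the assay follows cell death caused by Vpr and the record does not say whether a fall means rescue or toxicity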
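Fission yeast RE007 carrying one integrated HIV-1 vpr copy, seeded at OD 0.01 in PMG+AL medium with 23 nL pinned compound. Grown 24 h at 30 degrees; viability read by BacTiter-Glo luminescence after 5 min.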
MARV entry inh: inhibitors of Marburg virus binding or cell entry; 1.8% of 300,000 active; Marburg virus pseudotyped entry inhibition, cell reporter; control for the full effect not named in the record; about a third of the inactives were read at about 46 µM; AID 540276; Potency, µM (series often up to 37.8 µM), without a hit: at the top dose activity change, negative = inhibition, usual class: inhibitors; active = well fitted inhibition curve with a large enough effect; inconclusive = small, poorly fitted or top-dose-only effect, or effect the other way; inactive = flat fitted curve, though single readings scatter; tested in HEK293 cells; about a fifth of its hits are not listed in these tables; also: % is scaled to controls: 0 for no effect and ±100 for the full control effect; luciferase read-out
SARS PLpro yeast: SARS-CoV PLP inhibition in yeast | AID 485353 | Potency, µM (series often up to 32.9 µM), inactives show at the highest dose activity, positive = growth rescue | 0.19% of 330,000 active | S. cerevisiae expressing SARS-CoV PLpro, growth rescue; control for the full effect not named in the record; active means well fitted rising curve with a large enough effect; inconclusive means small, poorly fitted or top-dose-only effect; inactive means no such curve, though single readings can be large or run the other way; also: 0% is about no effect; nearly all actives have a fitted effect of over 55% in size; growth read by luminescence after 48 h
LASV entry inh: inhibitors of Lassa virus binding or cell entry; Lassa virus pseudotype entry inhibition, cell reporter; control for the full effect not named in the record; Potency, µM (highest dose often 37.9 µM), without a hit: at the top dose activity change, negative = inhibition, usual class: inhibitors; 1.2% of 300,000 active; active means well fitted inhibition curve with a large enough effect; inconclusive means small, poorly fitted or top-dose-only effect, or effect the other way; inactive means flat fitted curve, though single readings scatter; tested in HEK293 cells; also: % is scaled to controls: 0 for no effect and ±100 for the full control effect; nearly all actives have a fitted effect of over 50% in size; luciferase read-out
2A StopGo: lowers the luciferase signal of an FMDV 2A StopGo reporter. human cells with a luciferase reporter of 2A StopGo recoding; control for the full effect not named in the record. Potency, µM (doses to about 57.9 µM), for the others: at the highest dose signal change, negative = less light. 1.2% of 410,000 active; active = well fitted falling curve with a large enough effect; inconclusive = small, poorly fitted or top-dose-only effect; inactive = no such curve, though single readings can be large or run the other way; tested in HEK293T cells; also: % is scaled to controls: 0 for no effect and ±100 for the full control effect; nearly all actives have a fitted effect of over 45% in size; luciferase light after 4 h
Cruzain Triton: cruzain (T. cruzi) inhibition with detergent; 0.43% of 200,000 active; purified cruzain, Z-FR-AMC fluorescence, 0.01% Triton; P25779; Potency, µM, without a hit: max response, negative = inhibition, usual class: inhibitors;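 also: plate controls were neutral wells for no effect and buffer without enzyme for full effect; nearly all actives have a fitted effect of over 40% in size; top concentration of the series not given in the record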
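Purified cruzain (1.5 nM final) was preincubated with compounds for 15 min at room temperature in 100 mM sodium acetate pH 5.5, 5 mM DTT, 0.01% Triton X-100. Reaction started with 2 uM Z-FR-AMC; AMC fluorescence change over 60 s gave activity.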
Starred values were filed as active, the others as inactive; ? = inconclusive; . = not tested or not shown; & = joins results of further samples; [ ] = dose if it differs, or a comment. Unless noted, calls follow the shape of the dose curve; as a rule, active = well fitted curve in the direction sought with a large enough effect; inconclusive = small, poorly fitted or top-dose-only effect, or another doubt; inactive = no such curve, though single readings can be large; an effect the other way counts as inactive or inconclusive. Potency is read from the fitted curve at half-maximal effect.

Compound,MARV entry inh,Cruzain inh noDet,SARS PLpro yeast,NS1 inh,RE007 growth inh,2A StopGo,LASV entry inh,Cruzain Triton
CCOC(=O)c1ccc(CN(Cc2ccccc2)S(=O)(=O)c2cccc([N+](=O)[O-])c2)cc1,?,9%,2%,-15%,20%,-14%,?,-4.4%
COc1ccc(S(=O)(=O)N2CCN(C)CC2)cc1C(=O)Nc1ccccc1,?,.,-1%,12%,-18%,-3%,-3%[46.1 µM],.
COC(=O)CCCCCCCCC(O)CN1CCCCC1 (stereo not given),5%,5%,-13%,-14%,-1%,-4%,?,-2.4%
O=C(CC12CC3CC(CC(Br)(C3)C1)C2)Nc1cccc(S(=O)(=O)NC2=NCCC2)c1,-1%[46.1 µM],.,2%,.,4%,-23%,-11%[46.1 µM],.
NNC(=O)c1ccc(Cn2cc(Br)c(N)n2)cc1,-5%,.,-2%,-2%,2%,-3%,2%,.
CCS(=O)(=O)N1CCc2cc(C(=O)N3CCN(c4cccc(C(F)(F)F)c4)CC3)ccc21,?,-15%,.,.,.,0%,-15%[46.1 µM],-11%
COc1cc(COC(=O)c2cnc(C)cn2)c(OC)cc1Br,2%[46.1 µM],.,-3%,-1%,14%,-5%,1%,.
Cc1nnc(C)n1/N=C/c1cc(Br)cc(Br)c1O,-10%,2%,-13%,-172%,?,-22%,?,-1.4%
Cn1ccsc1=NC(=O)c1ccc(Cl)cc1,?,.,-3%,-5%,-17%,0%,12%,.
COC(=O)[C@@]1(Cc2ccc(F)cc2)[C@H]2c3cc(C(=O)N4CCCC4)n(CCCNc4ncc(C(F)(F)F)cc4Cl)c3C[C@H]2CN1C(=O)c1ccccc1,.,13%,-1%,?,11%,?,.,-1.3%
O=C(NCC(c1ccco1)N1CCN(c2ccccc2F)CC1)c1ccc2c(c1)OCO2 (stereo not given),-11%,.,-1%,.,-12%,-23%,-26%,.
O=S(=O)(c1ccc(Br)s1)N1CCN(Cc2ccc3c(c2)OCO3)CC1,9%,-6%,-12%,-29%,-1%,?,5%,0.9%
Cc1cc(C)c2c(N)c(C(=O)Nc3ccccc3F)sc2n1,.,.,-1%,-8%,-15%,35%[activator],.,.
COC(=O)c1oc2ccc(OC)cc2c1N,18%,-2%,-5%,3%,-9%,25%,3%,-4.4%
COc1ccc(OC)c2sc(NC(=O)C(C)C)nc12,.,-3%,11%,?,-2%,-9%,.,2.7%
CCCc1nnc(NC(=O)CCC(=O)N2CCN(C3CCCC3)CC2)s1,.,.,5%,5%,-19%,-12%,.,.
Cc1ccc(C2=NOC(=O)/C2=C\c2ccc(C)o2)cc1,?,.,-2%,2%,-11%,?,?,.
CCOC(=O)C1C(=O)C=C(C)C(C(=O)OCC)C1c1ccc(OC)cc1 (stereo not given),-4%,-1%,0%,-4%,-10%,-8%,14%,6.2%
CN(C)c1ccc(C(CNC(=O)c2ccccc2F)N2CCc3ccccc32)cc1 (stereo not given),.,-17%,.,.,.,6%,-1%[46.1 µM],?
O=C(Nc1cccc(S(=O)(=O)C(F)F)c1)c1ccc(S(=O)(=O)N2CCCC2)cc1,?,.,-2%,.,86%,-11%,5µM*,.
CC(=O)c1ccccc1NS(=O)(=O)c1cc2c(cc1C)NC(=O)CO2,.,10%,.,.,.,-3%,22%[46.1 µM],3.3%
C=CCNC(=O)c1ccccc1NS(=O)(=O)c1ccc(OC)c(C(=O)N2CCOCC2)c1,2%[46.1 µM],.,-1%,14%,-1%,3%,.,.
CCOC(=O)c1cccc(NC(=O)Cn2nc3c(cc2=O)CCCC3)c1,.,-5%,.,.,.,-2%,14%[46.1 µM],-1.6%
O=C(O)CSCc1nc2cccnc2n1C1CCCCC1,?,.,-1%,-3%,93%,-10%,-29%[46.1 µM],.
Cc1nc(NC(=O)CSc2cc(C)c3ccccc3n2)c(Cl)cc1Cl,?,13%,-5%,10%,-6%,0%,?,-2.8%
CCCCn1c(N)c(N(CCC(C)C)C(=O)COC(=O)c2ccc(CC)cc2)c(=O)[nH]c1=O,?,.,1%,.,27%,-13%,23%,.
CCOC(=O)C1CCN(S(=O)(=O)CCNC(=O)c2ccccc2)CC1,14%[46.1 µM],.,2%,.,3%,-4%,0%,.
O=c1[nH]c2cc(Cl)c(Cl)cc2[nH]c1=O,?,?,.,-8%,.,40%&-8%[activator],?,-6.8%&-4.7%
COc1cccc(C(=O)N2CCC(C(=O)Nc3cccc(Cl)c3)CC2)c1,-4%[46.1 µM],-4%,.,.,.,0%,-20%[46.1 µM],-5.7%
CC(C)N(CC#CCC(O)(c1ccccc1)C1CCCC1)CCO (stereo not given),.,.,-1%,-1%,17%,-18%,.,.
CCC(Oc1ccccc1)C(=O)Nc1ccc(S(=O)(=O)Nc2cc(C)on2)cc1 (stereo not given),-17%[46.1 µM],.,0%,13%,-4%,-7%,18%,.
OC(CCN1CCC2CCC(C2)C1)c1ccc(Br)cc1 (stereo not given),-5%,.,.,.,-3%,?,.,.
Cc1nc2nc(-c3cccs3)[nH]c2cc1Br,?,.,.,.,?,0%,?,.
COC(=O)CCNc1ccc2c(c1)OCCO2,-2%,7%,2%,1%,?,11µM*,12%,3.1%
CC(=O)N1CCc2cc(S(=O)(=O)CCC(=O)N3CCC(C)CC3)ccc21,25%[46.1 µM],.,3%,2%,10%,-12%,-1%[46.1 µM],.
CCCCN(C(=O)NC(=O)Nc1ccccc1OC)S(C)(=O)=O,4%,-2%,-8%,-9%,-14%,.,-26%,1.9%
Cc1ccccc1NC(=O)c1ccc(COc2ccc3c(C)cc(=O)oc3c2)cc1,?,10µM*,-6%,21%,-6%,-15%,?,-3.5%
Cc1ccc(S(=O)(=O)N2CCN(S(=O)(=O)N3CCCCC3)CC2)cc1,22%[46.1 µM],?,2%,9%,10%,3%,0%,0.1%
COc1ccc(CSc2nnc(SCc3ccc([N+](=O)[O-])cc3)s2)cc1,1%,-28%,7%,1%,7%,7%,1%,2.3%
O=C(NC(=S)Nc1nc(-c2ccc(Br)cc2)cs1)c1cccnc1,0%,4µM*,?,9%,-5%,26%,?,4.2%
COCCN1C(=O)C(=O)/C(=C(/O)c2ccc(S(=O)(=O)N3CCOCC3)cc2)C1c1cccc(O)c1 (stereo not given),.,.,0%,1%,7%,-12%,.,.
CCOC(=O)c1ccc(NC(=O)CN(c2ccc(C)cc2)S(=O)(=O)c2c(C)n[nH]c2C)cc1,6%,?,3%,-1%,2%,-22%,3%,-5.7%
COc1ccc(N2CCN(C(=O)CNC(=O)Cn3cnc4sc(C)c(C)c4c3=O)CC2)cc1,.,.,2%,-2%,-2%,?,.,.
C/C(=N\NC(=O)Cc1c(C)[nH][nH]c1=O)c1ccc(Cl)c(Cl)c1,.,.,-3%,-1%,-10%,-8%,.,.
CCN1CCN(C(=O)CN2C(=O)c3cccc4cccc2c34)CC1,23%,-7%,0%,3%,2%,-5%,-8%,1.5%
CCn1cc(C(=O)NCCC(C)C)c(=O)c2cc(F)c(N3CCN(C(=O)c4ccco4)CC3)cc21,.,.,3%,20%,11%,?,.,.
COc1ccccc1Nc1nc(N)nc(CN(C)C2CCCCC2)n1,0%,-24%,-2%,6%,9%,-7%,23%,-4.2%
Cc1ccc(NS(=O)(=O)c2ccc(Cl)s2)cc1S(=O)(=O)N(C)C,-16%,-8%,0%,-40%,-8%,7%,-2%,-5.7%
CC/C(C)=C1\SC(N2CCOCC2)=NC1=O,?,-7%,-3%,5%,-6%,3%,6%,4.0%
COc1ccc(NC(=O)CSc2nc3nc(C)cc(C)n3n2)cc1OC,.,-3%,.,.,.,-9%,14%[46.1 µM],0.9%

The listing continues.
Compound,MARV entry inh,Cruzain inh noDet,SARS PLpro yeast,NS1 inh,RE007 growth inh,2A StopGo,LASV entry inh,Cruzain Triton
COc1ccc(NC(=S)Nc2cccc3cnccc23)cc1,0%,-10%,-5%,10%,-28%,-7%,11%,-4.1%
CCNC(=O)COc1ccc(Br)cc1Cl,-10%,14%,-1%,-12%,-23%,35%[activator],9%,7.7%
Cc1ccc(NC(=O)CC2CCCC2)c(Br)c1,?,.,1%,-1%,16%,38%[activator],29%,.
CC(=O)Nc1ccc(S(=O)(=O)Nc2nc3ccccc3nc2Nc2ccc(O)cc2)cc1,.,.,0%,-2%,9%,5%,.,.
COc1ccc(CN2C(=O)CSC2c2ccncc2)cc1 (stereo not given),-25%[46.1 µM],.,-1%,0%,3%,-16%,-12%,.
Cc1ccc(-n2c(=S)sc3c(=O)n(-c4ccccc4C)c(SCC(=O)O)nc32)cc1C,.,.,-1%,?,1%,-22%,.,.
CCOc1ccc(S(=O)(=O)NCc2ccccn2)cc1,-13%,7%,3%,-6%,14%,.,14%,4.6%
CC(Oc1ccccc1Cl)C(=O)Nc1ccc(S(=O)(=O)N2CCOCC2)cc1 (stereo not given),?,.,.,.,-8%,-7%,7%,.
CC(=O)c1ccc(NC(=S)Nc2cccc(S(=O)(=O)Nc3c(C)n(C)n(-c4ccccc4)c3=O)c2)cc1,3%[46.1 µM],.,1%,.,-30%,37%[activator],.,.
S=C1SCN(Cc2cccnc2)CN1Cc1cccnc1,?,.,-7%,-74%,?,?,?,.
CC(/C=N/NC(=O)c1cc(-c2cccnc2)nc2c1c(C)nn2-c1ccccc1)=C\c1ccccc1,?,13µM*,0%,5%,.,?,?,-4.4%
CCOc1ccc(C(=O)NCC(=O)N2CCN(Cc3ccccc3)CC2)cc1,-14%[46.1 µM],.,1%,.,-3%,25%,?,.
O=C(c1ccc(S(=O)(=O)Cc2cc(F)ccc2F)c([N+](=O)[O-])c1)N1CCCCC1,?,4%,3%,-3%,7%,?,-3%,0.3%
COCCn1c(SCC(=O)Nc2cc(C)cc(C)c2)nnc1C(C)C,-19%,16%,12%,-4%,1%,0%,?,3.7%
